# PKD1 kinase inh: inhibitors of human PKD1 kinase, biochemical, fluorescence polarization; Serine/threonine-protein kinase D1 (Homo sapiens), Q15139; PKD1 kinase fluorescence polarization assay; inhibition, %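 (about 10 µM by stock and volumes)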; hit rate 0.056% among 200,000; AID 797, 2007;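 active = inhibition of 50% or more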;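 also: controls were vehicle for no effect and a reference inhibitor for full effect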
# Target sequence (Q15139 whole entry, looked up): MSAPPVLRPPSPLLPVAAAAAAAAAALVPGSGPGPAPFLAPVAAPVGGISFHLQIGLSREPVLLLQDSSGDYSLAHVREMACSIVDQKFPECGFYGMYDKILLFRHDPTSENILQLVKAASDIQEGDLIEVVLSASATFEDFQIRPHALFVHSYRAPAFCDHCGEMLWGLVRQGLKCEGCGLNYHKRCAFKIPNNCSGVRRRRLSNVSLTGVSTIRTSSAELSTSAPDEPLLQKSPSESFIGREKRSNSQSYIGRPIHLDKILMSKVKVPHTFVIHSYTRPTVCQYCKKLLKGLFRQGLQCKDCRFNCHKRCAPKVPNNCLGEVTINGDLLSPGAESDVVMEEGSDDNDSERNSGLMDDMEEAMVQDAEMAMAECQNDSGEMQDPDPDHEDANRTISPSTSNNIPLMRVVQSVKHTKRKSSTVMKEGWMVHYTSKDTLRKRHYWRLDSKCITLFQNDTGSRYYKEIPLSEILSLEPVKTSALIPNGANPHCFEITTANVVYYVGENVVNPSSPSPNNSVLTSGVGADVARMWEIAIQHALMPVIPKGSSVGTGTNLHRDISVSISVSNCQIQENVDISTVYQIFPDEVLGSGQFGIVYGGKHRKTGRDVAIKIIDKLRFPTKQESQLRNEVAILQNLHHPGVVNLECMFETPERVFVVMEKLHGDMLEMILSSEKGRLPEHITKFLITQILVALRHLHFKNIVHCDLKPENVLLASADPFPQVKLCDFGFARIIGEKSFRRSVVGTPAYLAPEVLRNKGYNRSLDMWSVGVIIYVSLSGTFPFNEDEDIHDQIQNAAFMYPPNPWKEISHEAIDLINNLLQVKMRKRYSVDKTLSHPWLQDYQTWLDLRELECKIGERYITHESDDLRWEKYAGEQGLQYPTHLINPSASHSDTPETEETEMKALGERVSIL
# GALR2 ag: GALR2 receptor agonists, primary screen, cell-based. hit rate 0.48% among 140,000. AID 803, 2007. GALR2-expressing cells, agonist activation read-out. activation, %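 (tested at 5 µM)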;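 active = above mean plus 3 SD of all compounds, about 5% in these data, not always enough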;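 also: 0% = vehicle buffer wells and 100% = reference agonist at full effect; tested in CHO reporter cells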
# INS promoter inh: inhibitors of insulin promoter-driven GFP, primary screen, imaging, TRM-6 cells (human fetal islet line), eGFP reporter, cell count; reporter expression induced with tamoxifen; inhibition, % at 2 µM; hit rate 0.9% among 130,000; AID 1273, 2008;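 active = inhibition above the mean plus 3 SD, with well images judged a real hit on visual review, cut at about 60% in these data, passing the limit was not always enough; inconclusive = inhibition over the cutoff but images rejected on review; inactive = inhibition not above the cutoff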
# RGS16-Gao: modulators of RGS16 binding to Galphao, primary screen, biochemical, human proteins, multiplexed bead flow cytometry; bead-based flow cytometry RGS16-Galphao binding, fluorescence; actives lie on both sides; binding response (% of control), % at 10 µM; Regulator of G-protein signaling 16 (Homo sapiens) + Guanine nucleotide-binding protein …; AID 1441, 2008; hit rate 0.38% among 220,000;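 active = below 25% or above 175%, edge rows of some plates excepted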;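 also: Galphao activated by GDP with aluminum fluoride before binding; 100% = wells without compound and 0% = beads without RGS; some results beyond the cut were filed as inactive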
# HSV replic up: enhancers of HSV replication in host cells, fold increase, host cell viability; HSV replication augmentation in cells; maximum fold increase; hit rate 0.005% among 220,000; AID 1956, 2009;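 active = peak rise of 1.5-fold or more in the series; inconclusive = self-fluorescent or not available for retest; tested in PC3 cells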;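 also: first round at 10 µM; read as green reporter fluorescence; hits show the peak of a series up to 25 µM; 1 = signal of infected wells without compound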
# INS promoter inh cell count: recorded beside INS promoter inh, whose call it bears; normalized cell count, %; measured here: cell count, toxicity; reference of the scale not given here;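 cells exposed to compound for 48 h; stained nuclei by imaging scaled within each plate; lower means fewer cells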
# HSV replic up primary fold: second read-out of HSV replic up, no call of its own (marks repeat the call); fold increase; compound at 10 µM; measured here: primary screen fold increase 10 uM; tested in PC3 cells;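 GFP signal in the first replicate; 1 = infected wells without compound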
# An asterisk follows results filed as active; i = inactive; ? = inconclusive; / = no result given.
SMILES,PKD1 kinase inh,GALR2 ag,INS promoter inh,INS promoter inh cell count,RGS16-Gao,HSV replic up,HSV replic up primary fold
COc1ccc(Cn2c(C(C)C)nc3sc4ccccc4c(=O)c3c2=O)cc1,/,/,/,/,99,i,0.79
CCOC(=O)/C(C#N)=C/C=C1/C=CC=CN1C,/,/,/,/,95,i,1.3
CC1(C)CC2CC(C)(CN2S(=O)(=O)c2ccc(C(=O)Nc3ccc(S(=O)(=O)N4CCOCC4)cc3)cc2)C1 (configuration not stated),-11,-0.1,36,91,108,i,0.71
CCCCCNC(=O)c1ccc2c(=O)n(CCCN3CCCC3=O)c(=S)[nH]c2c1,-5,/,-60,109,101,i,0.96
CC1(C)N=C(N)N=C(N)N1c1ccc(OCCCOc2ccccc2)c(Cl)c1,/,/,/,/,100,i,0.81
CCOC(=O)CSCc1cn2cc(Cl)ccc2n1,-1,-1.1,-27,108,104,i,1.1
COc1ccc(/C=C(\C#N)C(=O)Nc2cc(C)c(Cl)cc2OC)cc1O,/,/,/,/,89,i,0.7
Cc1ccc(C)c(S(=O)(=O)N/N=C/c2ccc(F)cc2)c1,3,/,36,108,102,i,1
CCc1cccc(CC)c1-n1c(SCn2nnc3ccccc3c2=O)nnc1-c1cccnc1,-8,1.2,/,/,93,i,0.91
COc1ccccc1CN1CCNC(=O)C1CC(=O)N(C)Cc1ccon1 (configuration not stated),0,/,/,/,98,i,1.1
O=C(CSc1nccn1-c1cccc(Cl)c1)NC1CCCC1,-6,-1.6,-65,128,103,i,0.98
Cc1[nH]nc(N=CC2=C(O)CC(c3ccco3)CC2=O)c1-c1ccccc1 (configuration not stated),6,0.1,10,163,100,i,1.1
COc1ccc(OCC(=O)N/N=C2\CCCCc3ccccc32)cc1,-6,/,-47,51,99,i,1
COC(=O)c1ccc(C23CC4(C2)[C@H](CN(C)[C@@H]4c2ccccc2)C3c2ccccc2)cc1 (some centres not stated),/,/,/,/,95,i,0.86
Cc1cc2occ(CC(=O)Nc3nccs3)c2cc1C(C)C,-2,-2.3,-20,126,103,i,1
O=C(c1ccccc1Cl)N(Cc1ccc(Br)cc1)N1C(=O)CCC1=O,-6,/,/,/,80,i,0.97
Cc1cc(Sc2nnc(/N=C/N(C)C)s2)c2ccccc2n1,/,/,/,/,99,i,0.86
COc1ccc(Cl)cc1C(=O)Nc1ccc(NC(=O)c2ccco2)cc1,-7,0.0,/,/,100,i,0.79
Fc1ccc(-c2nnc3ccc(N4CCCC4)nn23)cc1,-5,-0.5,/,/,93,i,0.81
CSCCC(NC(=O)c1ccccc1)C(=O)Nc1ccc(NC(C)=O)cc1 (configuration not stated),-3,-0.5,39,135,108,i,1.1

# A different layout for part of the listing above:
canonical_smiles: COc1ccc(/C=C(\C#N)C(=O)Nc2cc(C)c(Cl)cc2OC)cc1O
  PKD1 kinase inh: / | GALR2 ag: / | INS promoter inh: / | INS promoter inh cell count: / | RGS16-Gao: 89 | HSV replic up: i | HSV replic up primary fold: 0.7

canonical_smiles: CC1(C)N=C(N)N=C(N)N1c1ccc(OCCCOc2ccccc2)c(Cl)c1
  PKD1 kinase inh: / | GALR2 ag: / | INS promoter inh: / | INS promoter inh cell count: / | RGS16-Gao: 100 | HSV replic up: i | HSV replic up primary fold: 0.81

# (further entries)
SMILES,PKD1 kinase inh,GALR2 ag,INS promoter inh,INS promoter inh cell count,RGS16-Gao,HSV replic up,HSV replic up primary fold
FC(F)(F)c1cccc(NC(=S)Nc2ccc(Cl)c(Cl)c2)c1,/,/,/,/,94,i,1.1
CCN(CC)CCN1C(=O)C(=O)/C(=C(/O)c2c(C)[nH]c(C(=O)OC)c2C)C1c1cccnc1 (configuration not stated),-1,-0.3,64,85,179,i,0.88
O=C(NCc1ccccn1)c1ccc(=O)oc1,2,0.7,/,/,103,i,0.71
O=C(c1cccc(S(=O)(=O)N2CCc3ccccc3C2)c1)N1CCN(c2ccc(O)cc2)CC1,14,0.0,-107,86,105,i,0.81
COCC(=O)N(Cc1cc2ccccc2[nH]c1=O)c1ccc(OC)cc1,-15,-1.8,40,96,104,i,0.98
COC(=O)c1c(N2C(=O)CC(Sc3ccccc3C(=O)O)C2=O)sc(C)c1C (configuration not stated),-5,/,-12,69,99,i,1.1
Cn1c(NNC(=O)c2cccc3ccccc23)cc(=O)n(C)c1=O,3,/,/,/,102,i,1
Cc1cccc(NC(=O)CN2C(=O)N/C(=C/c3cc(C)n(-c4cccnc4)c3C)C2=O)c1,4,/,/,/,101,i,0.93
Cc1cc2c(s1)CCCCC(=O)N2,5,-0.8,0,100,89,i,0.93
NC(=O)CC(NC(=O)Cc1cccc2ccccc12)c1ccc(NCc2ccccc2)c([N+](=O)[O-])c1 (configuration not stated),/,/,/,/,99,i,0.63
CCN1CCN(C(=O)c2ccc3c(=O)n(C4CCCC4)c(=S)[nH]c3c2)CC1,-2,-0.5,-23,118,101,i,1
Cn1c(=O)c2c(nc(CN3CCc4ccccc4C3)n2Cc2ccc(Cl)cc2)n(C)c1=O,-5,-1.3,-16,72,90,i,0.82
COc1ccc(OC)c(C2C=C(c3ccc(C)c(C)c3)Nc3nnnn32)c1 (configuration not stated),/,/,/,/,102,i,1.2
O=C(NCc1cccs1)C1CCN(c2ccc(S(=O)(=O)N3CCOCC3)cc2Cl)CC1,-11,-1.9,-221,14,107,i,0.65
CN(c1ccccc1)S(=O)(=O)c1ccc(Cl)c(C(=O)NC2=NCCS2)c1,-1,/,-23,117,99,i,1
O=C(NC1(C(F)(F)F)NC(=O)N(Cc2cccnc2)C1=O)c1ccccc1Cl (configuration not stated),4,-2.0,-34,121,104,i,0.91
COc1ccc(C2C3=C(CCCC3=O)Nc3nc4ccccc4n32)cc1OC (configuration not stated),1,-0.8,59,97,/,/,/
COc1ccc(-c2nnnn2-c2ccccc2OC)cc1,-2,-0.1,/,/,102,i,0.57
CCc1ccc(NC(=O)c2ccc(Cn3cc([N+](=O)[O-])cn3)cc2)cc1,-8,-0.3,/,/,119,i,0.83
Cc1ccc(N=Cc2c(O)n(-c3nccs3)c(=O)c3ccccc23)cc1,-4,-0.1,/,/,99,?,/
Cc1cccc2cc(C#N)c(NCCNS(=O)(=O)c3ccc4c(c3)OCCO4)nc12,-1,3.9,/,/,98,i,0.96
CCCCNC(=O)Nc1cnn(CC)c1C(N)=O,-6,-1.2,24,137,103,i,1
O=c1oc2ccccc2c(NCCc2ccccc2)c1[N+](=O)[O-],-5,-0.3,34,41,98,i,0.94
c1cc2ccc3ccc(CN4CCOCC4)c4ccc(c1)c2c34,-5,-2.1,41,83,104,i,0.77
Cc1cnc(C(=O)OCC(=O)Nc2ccc(Cl)cc2)cn1,-7,-1.6,18,151,84,/,/
O=S(=O)(c1ccccc1)N1CCCC1c1cccs1 (configuration not stated),/,/,/,/,92,i,1
Cc1cccc(OCC(=O)N/N=C/c2sc(=O)n(Cc3cccc(C(=O)O)c3)c2Cl)c1,/,/,/,/,106,i,1.2
Cn1c(=O)oc2cc(S(=O)(=O)Nc3cccc(C(=O)O)c3)ccc21,-2,-0.2,/,/,107,i,1
COC(=O)N/N=C\c1cc(Br)ccc1OCc1ccccc1,-2,0.3,/,/,111,i,1
Cn1c(-c2ccc(C(C)(C)C)cc2)n[nH]c1=S,-5,-0.3,-43,226,100,i,0.96
CC(C)c1ccc(N2CCN(C(=O)c3ccccc3NC(=O)/C=C(\C(=O)O)c3ccccc3)CC2)cc1,-1,-3.7,23,56,99,i,0.98
Cn1ncc(Br)c1C(=O)NC(=S)N1CCN(c2ccccn2)CC1,-5,-0.9,/,/,98,i,1.1
Cc1ccc(C)c(N(C(=O)Cn2nnc(-c3cccs3)n2)C(C(=O)NC2CC2)c2ccc(C)o2)c1 (configuration not stated),-5,-1.9,64,120,102,i,1
CCOC(=O)CSc1ccc(-c2nc3cc(C)c(C)cc3[nH]2)cn1,1,0.0,23,153,109,i,0.77
CC1=C(C(=O)OC2CCCCC2)C(c2ccco2)n2ncnc2N1 (configuration not stated),-13,/,/,/,114,i,0.98
C=CCNc1nc(N)c(C(=C(C#N)C#N)c2ccccc2)s1,11,-1.9,-19,67,/,i,1.1
Cc1cc(OCc2nc(-c3ccncc3)no2)cc(C)c1Cl,-5,/,19,75,64,i,0.86
CN(C)c1nc(Oc2ccc(/C=N/O)cc2)nc(N(C)C)n1,-5,-2.2,/,/,102,i,0.84
CC1CC2=C(NC(=S)NC2c2ccccc2F)/C(=C/c2ccccc2F)C1 (configuration not stated),-2,/,/,/,91,i,1.1
COc1ccc(/C=C(\NC(=O)c2cccs2)C(=O)Nc2ccccc2C)cc1OC,4,-0.7,-29,63,80,i,0.99

# Filtered by structure: the entries above with fluorine (5)
SMILES,PKD1 kinase inh,GALR2 ag,INS promoter inh,INS promoter inh cell count,RGS16-Gao,HSV replic up,HSV replic up primary fold
Cc1ccc(C)c(S(=O)(=O)N/N=C/c2ccc(F)cc2)c1,3,/,36,108,102,i,1
Fc1ccc(-c2nnc3ccc(N4CCCC4)nn23)cc1,-5,-0.5,/,/,93,i,0.81
FC(F)(F)c1cccc(NC(=S)Nc2ccc(Cl)c(Cl)c2)c1,/,/,/,/,94,i,1.1
O=C(NC1(C(F)(F)F)NC(=O)N(Cc2cccnc2)C1=O)c1ccccc1Cl (configuration not stated),4,-2.0,-34,121,104,i,0.91
CC1CC2=C(NC(=S)NC2c2ccccc2F)/C(=C/c2ccccc2F)C1 (configuration not stated),-2,/,/,/,91,i,1.1

# Carrying on.
SMILES,PKD1 kinase inh,GALR2 ag,INS promoter inh,INS promoter inh cell count,RGS16-Gao,HSV replic up,HSV replic up primary fold
N#Cc1nc(-c2ccccc2Cl)oc1N1CCOCC1,-14,-1.1,-7,51,87,i,0.86
Cc1ccc(NC(=S)Nc2nc(CC(=O)Nc3ccccc3)cs2)cc1,-5,-3.1,24,80,52,i,0.93
N/C(=N\c1nc2c(c(=O)[nH]1)CCCC2)Nc1ccccc1Sc1ccccc1,-4,0.0,-17,112,116,i,0.94
COc1ccc(/C=N/c2nc3ccccc3n2C)cc1OC,-13,-0.9,/,/,106,i,1.1
CN(C)CCNC(=O)c1sc2cccc(F)c2c1Cl,1,/,/,/,106,i,0.95
O=C(N/N=C/c1ccco1)c1cnccn1,-16,-2.6,/,/,102,i,0.93
Cc1ccc(C)c2c(SC(C)C(=O)NCc3ccco3)nc(-c3ccccc3)nc12 (configuration not stated),-3,-2.8,-56,104,87,i,1.1
COC(=O)C1CCCN1C(C(=O)NC1CCCCC1)c1ccc(Cl)cc1 (configuration not stated),-5,-1.2,15,119,101,/,/
N/C(=N\c1nc2c(c(=O)[nH]1)CCC2)Nc1ccccc1,2,-0.8,20,64,95,i,0.94
NS(=O)(=O)c1cccnc1Nc1ccc(Cl)c(Cl)c1,9,-0.4,60,142,120,/,/
Cc1ccc(C)c(NC(=O)CCC(=O)N/N=C2/CC(=O)CC(C)(C)C2)c1,0,/,/,/,101,i,0.93
Cc1cc(=O)oc2cc(OCC(=O)N3CCCC(C)C3)ccc12 (configuration not stated),-12,-0.7,-4,105,100,i,0.96
C[N+]1(CC(=O)OCCCc2ccccc2)CCOCC1,-2,-1.1,44,107,104,i,1
Cc1cnc(C(=O)OCC(=O)N2CCc3ccccc3C2)cn1,2,0.0,26,122,101,i,0.9
Cn1c(=O)c2c(SCC(N)=O)nc(CC(C)(C)C)nc2n(C)c1=O,-31,-1.4,/,/,100,i,0.76
Cc1ccccc1OCc1nnc(SCC(=O)O)n1Cc1ccccc1,3,/,/,/,101,i,0.98
COc1ccc(-n2c(=O)c3ccccc3n(CC(=O)Nc3cc(C)on3)c2=O)cc1OC,-11,-2.1,/,/,100,i,0.95
COc1ccc(C(=O)N2CCC(N3CCN(c4ccccc4)CC3)CC2)cc1OC,-7,-1.4,/,/,101,i,0.93
Nc1cc(=O)[nH]c(=S)n1-c1ccccc1,-5,-1.7,-7,145,93,i,1.1
CCCC(=O)N1CCc2cc(-c3nc(N)sc3C)ccc21,-3,-1.3,21,145,106,i,0.98
CCOC(=O)CN1NC2(CCC(C)CC2)NC1=S (configuration not stated),-3,-1.3,-56,115,101,i,1
Cc1cccc(-n2c(O)c(C=NCc3ccccn3)c3ccccc3c2=O)c1,-9,-1.1,-11,128,113,i,0.92
CC(=O)Nc1ccc2nc(NC(=O)COc3ccccc3C)sc2c1,-9,/,22,95,103,i,0.85
Cc1c(Cl)cccc1NC(=S)N(C)CCC#N,-8,/,29,123,101,/,/
CCC(C(=O)O)n1c(C(F)(F)F)nc2ccccc21 (configuration not stated),-7,-3.4,49,129,102,i,0.91

# Screens from PubChem.

# Outcome played no part in choosing rows. About 1.3% of those tested had a hit in this group.
